rRNA inh HTS: inhibitors of bacterial rRNA selective over humanized ribosomes; 350,000 tested, 1.6% active; GFP signal change (wild-type ribosome), % (test concentration not listed); E. coli WT GFP vs humanized-ribosome RFP mutants, fluorescence, 24 h; stronger effect = lower value; DMSO median 0, no signal -100;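 active = significant combined selectivity score with lowered wild-type GFP, culture density cut under 30%, mutant RFP and density less affected; inactive = any of these conditions unmet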; also: one replicate is shown; some compounds called inactive have numbers as strong as hits
Beta apoptosis: blocks beta cell apoptosis | INS-1E cytokine-induced death, ATP luminescence, 48 h; percent of positive-control rescue, neutral wells zero | protection from apoptosis, % (concentration not given with the values) | 300,000 tested, 0.8% active;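 active = all replicates at 75% or more, or half of them and the mean; inconclusive = half reach 75% but not the mean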;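 also: 0% = cytokine-treated negative control wells and 100% = positive control rescue; higher means more ATP so stronger rescue from cytokine killing; wells of about 40 µL received 100 nL stock; the first replicate is given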
Vif TR-FRET: HIV-1 Vif–A3G interaction blockers – biochemical, TR-FRET, GST-Vif 1-94, biotin-A3G peptide, dose response retest, primary screen (AID 1117319); TR-FRET GST-Vif / biotin-A3G peptide binding; higher % means a stronger effect; test concentration not given here; strong numbers were not always called active; inhibition, %, or IC50 in µM where a hit was titrated; 260,000 tested, 0.57% active;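 active = above the screen mean plus three standard deviations and confirmed in dose response; inconclusive = results disagree or hit not tested in dose response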;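 also: Vif residues 1-94 fused to GST binding biotinylated APOBEC3G peptide 110-148; 0% = full assay without inhibitor and 100% = GST in place of GST-Vif; retest series ran down from 100 µM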
AF4-AF9 inh: inhibitors of human MLL-AF4/AF9 interaction; P42568; AlphaScreen, biotin-AF4 peptide binding to FLAG-AF9; inhibition, % at 10 µM; 350,000 tested, 0.47% active; AID 651704;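 active = every replicate reaching a set inhibition limit, whatever the replicate mean, cut at about 25% in these data; inconclusive = mean inhibition reaches that limit but some replicates miss it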;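 also: 0% = plate neutral control median and 100% = total signal loss; the record names both 10 and 1 µM as test concentration; the first replicate is given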
Target sequence (P42568 whole entry, looked up): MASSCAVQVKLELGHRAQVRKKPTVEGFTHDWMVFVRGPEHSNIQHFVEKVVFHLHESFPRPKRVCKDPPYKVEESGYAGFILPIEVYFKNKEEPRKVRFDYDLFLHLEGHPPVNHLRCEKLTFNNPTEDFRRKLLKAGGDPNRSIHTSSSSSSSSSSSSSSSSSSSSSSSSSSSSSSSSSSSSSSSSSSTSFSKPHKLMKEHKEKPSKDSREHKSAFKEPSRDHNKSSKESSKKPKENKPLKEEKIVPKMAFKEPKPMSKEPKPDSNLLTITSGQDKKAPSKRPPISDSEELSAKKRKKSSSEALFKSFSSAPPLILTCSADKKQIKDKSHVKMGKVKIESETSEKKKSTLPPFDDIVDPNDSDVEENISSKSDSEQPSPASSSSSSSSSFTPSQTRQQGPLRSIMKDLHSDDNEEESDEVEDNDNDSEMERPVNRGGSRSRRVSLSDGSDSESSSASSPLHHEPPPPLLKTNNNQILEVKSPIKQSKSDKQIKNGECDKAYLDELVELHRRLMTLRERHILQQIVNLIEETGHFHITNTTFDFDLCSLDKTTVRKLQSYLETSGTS
Calb FLC: C. albicans growth modulation with fluconazole | C. albicans CaCi-2 (fluconazole-resistant clinical isolate) + fluconazole, Alamar Blue growth, 48 h | growth inhibition, % (concentration not given with the values) | 300,000 tested, 0.57% active;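 active = most replicates above 75%; inconclusive = exactly half above 75%; inactive = most below 75%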;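 also: all wells also contain fluconazole at 8 µg/ml as a sub-toxic cotreatment; 0% = median of DMSO wells and 100% = median of geldanamycin control wells; wells of about 8 µL received 7.5 nL stock; the first replicate is given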
RanGTP-Impb inh: inhibitors of RanGTP-importin-beta interaction, primary screen, biochemical, FRET, CFP-Ran, YFP-importin-beta, homogeneous. 300,000 tested, 1.1% active. inhibition, % (test concentration not listed). cell-free CFP-Ran/YFP-importin-beta FRET ratio. AID 2216;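 active = most replicates above 15%; inconclusive = exactly half above 15%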;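 also: 0% = DMSO wells and 100% = Ran loaded with GDP instead of GTP; wells of about 40 µL received 100 nL stock; the first replicate is given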
A1 inh: inhibitors of the anti-apoptotic protein A1, read as caspase activation. MEF A1-2A-BIM cells, Caspase-Glo 3/7 luminescence, 3 h; percent of clofoctol response, vehicle zero. caspase activation, % (test concentration not listed). 330,000 tested, 0.066% active;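 active = over half of replicate activation scores above 10%, or exactly half above 10 with the replicate mean above 10; inconclusive = replicate mean below 10 yet half the replicates above 10; inactive = over half of replicates below 10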;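 also: wells of about 30 µL received 50 nL stock; many hits fall short of the cut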
T cruzi inh: T. cruzi replication inhibition; inhibition, % (no concentration beside the values); 300,000 tested, 1.4% active; AID 1885; T. cruzi beta-gal in NIH3T3, luminescence, 90 h;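 active = mean inhibition across valid replicates above about 55%, limit read from the data; inconclusive = mean below that limit but half or more replicates reach it; inactive = mean below it, under half of replicates reach it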;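 also: signal also drops with host cell toxicity which is not excluded here; 0% = plate median of DMSO wells and 100% = zero luminescence signal; higher percent means less beta-gal luminescence so fewer parasites; stock transfer was 50 nL into about 50 µL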
rRNA inh HTS OD600: recorded beside rRNA inh HTS, whose call it bears; OD600 change, %; measured here: OD600 growth;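 optical density of the mix in the first replicate; 0 = DMSO median and -100 = no signal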
rRNA inh HTS RFP: also measured in rRNA inh HTS; calls as there; RFP signal change, %; measured here: RFP humanized mutant strains;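 first replicate; 0 = DMSO median and -100 = no signal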
* marks the source's active call; other numbers are inactive results; ? = inconclusive; . = no result given; & = joins results of further samples. Some of the compounds tested. The share of hits here may be higher or lower than overall.

SMILES | rRNA inh HTS | rRNA inh HTS OD600 | rRNA inh HTS RFP | Beta apoptosis | Vif TR-FRET | AF4-AF9 inh | Calb FLC | RanGTP-Impb inh | A1 inh | T cruzi inh
NC(=S)/N=C/c1c(O)[nH]c(=O)[nH]c1=O | 7 | 6 | -1.0 | -11 | 7% | -4.2 | -6 | 4.4 | -0.1 | -1
c1ccc(-c2nc(N3CCOCC3)s[n+]2-c2ccccc2)cc1 | . | . | . | -1 | 10% | . | -2 | ? | -1.2 | -13
Cc1cccc(N2C(=O)NC(=O)/C(=C/c3ccc(-c4ccc(C(=O)O)c(Cl)c4)o3)C2=O)c1 | . | . | . | 0 | 13% | . | ? | 1.4 | 0.6 | -7
NC(=O)c1ccsc1NC(=O)COC(=O)Cc1ccccc1 | -2 | -3 | -3.9 | 1 | -15% | -4.9 | . | . | 1.3 | .
COc1ccc(-n2c(-c3ccc(C)cc3)nc3ccccc3c2=O)cc1 | -27* | -11* | 0.0* | -2 | -7% | 0.2 | -10 | 1.7 | 0.3 | 15
N#Cc1ccccc1Cn1cc(C(=O)C2CC2)c2ccccc21 | . | . | . | -6 | 1% | . | -6 | 1.2 | 0.0 | -12
COc1cc(C(c2c(C)[nH]n(-c3ccccc3)c2=O)c2c(C)[nH]n(-c3ccccc3)c2=O)cc(OC)c1OC | 5 | -1 | 2.2 | 2 | 12% | 9.7 | 1 | -1.8 | 0.4 | -8
Cc1ccc(OCC(=O)N2CCN(Cc3ccc4c(c3)OCO4)CC2)cc1 | -7 | -3 | 1.1 | -5 | . | 0.0 | -35 | 4.1 | -0.4 | 18
O=C(O)C1Cc2ccccc2N2CCCC12 (stereo not drawn) | -3 | 0 | 0.6 | -1 | 15µM* | 3.4 | -1 | -3.1 | -0.2 | -10
CCN1CC=C(c2c[nH]c3ccccc23)CC1 | . | . | . | 0 | 5% | . | 3 | 1.0 | 0.4 | -6
CC(C)(C)C(=O)O[C@H]1CC[C@@]2(C)C(=CC(=O)C3C2CC[C@]2(C)C(=O)[C@H](O)CC32)C1 (stereo partly drawn) | -4 | -19 | -1.2 | 0 | -7% | -1.4 | . | . | -0.3 | .
NS(=O)(=O)c1ccc(N=Cc2c(O)n(C3CCCCC3)c(=O)n(C3CCCCC3)c2=O)cc1 | . | . | . | 1 | 3% | . | ? | -3.4 | 0.0 | ?
COc1ccc(C2=NCC(=S)Nc3ccc(Cl)cc32)cc1OC | -4 | 2 | -1.3 | 1 | . | 3.0 | 1 | 6.3 | 0.2 | -8
COc1ccccc1C1=NCc2nnc(CSC)n2-c2ccc(Cl)cc21 | 5 | 3 | 0.9 | -6 | . | . | 3 | 6.6 | 0.0 | -6
O=C(O)c1cc(Oc2ccc(C(F)(F)F)cc2Cl)ccc1[N+](=O)[O-] | -53 | -64 | -14 | -2 | . | 1.4 | . | 3.0 | 2.0 | 8
COC(=O)C1=C(c2cccc(C#N)c2)C[C@@H]2CC[C@H]1N2C(=O)NCc1cccc2ccccc12 | -15 | -15 | -2.9 | -2 | . | 3.8 | . | . | -0.1 | .
CCOc1ccc(-c2c(C)n(-c3ccc(OCC)cc3)c3[n+]2CCCCC3)cc1 | -46 | -74 | -12 | . | 10% | 8.0 | 87* | -3.9 | -2.4 | 46
COc1cc(Cn2c(N)c(C(=O)NCc3ccco3)c3nc4ccccc4nc32)cc(OC)c1OC | . | . | . | -3 | -9%&10% | . | -3 | 54* | -0.4 | -16
CCOC(=O)/C(CCCN(CC)CC)=N\O | . | . | . | 0 | 3% | . | -5 | 1.0 | 0.5 | -5
CCCCc1nc2ccccc2c(=O)n1-c1ccccc1[N+](=O)[O-] | . | . | . | 0 | 10% | . | -5 | 1.6 | 0.5 | -10
CNC(=O)OCCc1n(C)cc[n+]1C | 23 | 9 | -1.7 | 5 | -1% | -6.5 | -3 | 8.2 | 0.8 | -7
C=Cn1c(P(=S)(N2CCOCC2)N2CCOCC2)cc2c1CCCC2 | . | . | . | 11 | ? | . | 39 | -0.1 | -0.5 | 2
CC(N)Cc1ccccc1Sc1ccc(O)cc1 (stereo not drawn) | . | . | . | -10 | -6% | . | -4 | 3.2 | 0.8 | 18
COc1ccc(CCNC(=O)c2c(N)n(CCN3CCOCC3)c3nc4ccccc4nc23)cc1OC | . | . | . | 3 | ? | . | 0 | 55* | 0.3 | 27
COc1cccc(C2(O)CCN(CC(=O)Nc3nc(C)cs3)CC2)c1 | 6 | 3 | 0.2 | -1 | -4% | -0.9 | ? | -3.3 | -0.1 | -3
Cc1ccsc1-c1nc(CSCC(=O)N2CCC3(CC2)OCCO3)c(C)o1 | . | . | . | 0 | 5% | . | -6 | 0.8 | 0.0 | 5
CCN(CC)c1ccc(/C=C2\C(=O)NC(=S)N(c3ccc(OC)cc3OC)C2=O)o1 | . | . | . | 2 | . | . | -7 | -51 | 0.8 | 21
O=C(Nc1ccc(OC(=O)N2CCCC2)cc1)N1CCOCC1 | 4 | -5 | -1.8 | 10 | 6% | -2.7 | -2 | 3.3 | -1.9 | 0
COc1ccccc1CN1CCN(C(=O)COc2cccc(C)c2)CC1 | . | . | . | . | 13% | . | 10 | 2.5 | 0.1 | 8
CC1CCCC(NC(=O)CNC(=S)N2CC3CC(C2)c2cccc(=O)n2C3)C1C (stereo not drawn) | 0 | 3 | -4.9 | -3 | . | -3.3 | 5 | -0.5 | 0.7 | -9
O=C(CN1C2CCC1CC(O)(c1cccnc1)C2)Nc1ccc2c(c1)OCO2 (stereo not drawn) | . | . | . | -6 | 5% | . | -10 | -2.0 | 1.1 | -17
Cc1nccn1Cc1ccc(Cl)nc1 | 1 | 13 | -0.4 | -5 | 1% | 1.9 | -1 | -1.4 | -0.1 | -16
Cc1ccc2c(c1)C(c1ccccc1)=NCC(=O)N2C | 0 | -3 | -2.6 | 12 | . | . | -3 | -1.2 | 0.5 | -4
CCOP(=O)(OCC)C(NC(=O)c1ccc(Cl)cc1)=C(Cl)Cl | . | . | . | -7 | 11% | . | 10 | 1.0 | -0.3 | -1
CCS(=O)(=O)NC(C)c1nnc2n1-c1ccc(Br)cc1C(c1ccccc1Cl)=NC2 (stereo not drawn) | 8 | -6 | 0.8 | -1 | . | . | -2 | 1.8 | -0.2 | 11
CC(=Nc1ccccc1N)c1c(O)n(C)c(=O)[nH]c1=O | 15 | 12 | 3.1 | -6 | -5% | 3.6 | 6 | 8.9 | 0.1 | -3
CCCCN1C(=O)C(C2c3ccccc3C(=O)N2Cc2ccccc2)C(=O)NC1=S (stereo not drawn) | . | . | . | -4 | 0% | . | -6 | -1.5 | 0.6 | -1
Cc1ccc(C(=O)c2cc(Br)ccc2N)cc1 | -55 | -82 | -16 | 1 | 5% | 7.4 | -11 | -1.2 | 1.2 | 5
C/C(=N\N1CCCCCC1)c1c(O)n(C2CCCCC2)c(=O)[nH]c1=O | 3 | 8 | 5.2 | -7 | -3% | -6.6 | 15 | 2.6 | 0.2 | 2
O=C(CN1CCN(CCO)CC1)Nc1ccc(Cl)cc1C(=O)c1ccccc1 | . | . | . | -2 | 24% | . | -11 | 4.4 | -0.5 | 7
CC(=O)CC(C)(C)n1c[n+](C)nn1 | . | . | . | -7 | 20% | . | 40 | 2.4 | 0.0 | -7
CCN1C[C@]2(CO)CC[C@H](OC)[C@@]34C5C[C@H]6[C@H](OC)C5[C@](O)(C[C@H]6OC)[C@@H](C(OC)C23)[C@@H]14 (stereo partly drawn) | . | . | . | -5 | . | -2.8 | -7 | ? | -1.2 | -13
CCn1c(O)c(/C=N/NC(=O)c2ccncc2)c(=O)[nH]c1=S | 7 | 13 | 11 | 1 | 11% | 2.6 | -4 | 5.1 | -0.1 | -13
CC1(CCl)CN1S(=O)(=O)c1ccccc1 (stereo not drawn) | 2 | 1 | 2.9 | -11 | 3% | -2.8 | 6 | -1.0 | 1.1 | -10
C=C1C(=O)O[C@@H]2C[C@@H](C)[C@@H]3C=CC(=O)[C@@]3(C)[C@@H](OC(=O)CC(=O)O[C@H]3[C@@H]4C(=C)C(=O)O[C@@H]4C[C@@H](C)[C@@H]4C=CC(=O)[C@]43C)[C@H]12 | 5 | 16 | 20 | 132* | 29% | -42 | 27 | 1.8 | -1.7 | 51
Cc1ccc(CCN2CC(C(=O)N3CCC4(CC3)OCCO4)CC2=O)cc1 (stereo not drawn) | . | . | . | 2 | 0% | . | -8 | 6.1 | 0.0 | 5
O=C(CN1CC=C(c2ccccc2)CC1)Nc1c(Cl)cccc1Cl | . | . | . | -2 | 3% | . | -2 | 1.9 | 0.1 | 24
Cc1ccc(C2C(=O)NC(=O)NC2=O)cc1 | 20 | 4 | 3.5 | -1 | . | 1.0 | 5 | -1.4 | -0.6 | -13
Cn1cnnc1Sc1cc(N2CCNCC2)ccc1[N+](=O)[O-] | 11 | 4 | 0.8 | 0 | . | 5.8 | 3 | -0.3 | 1.9 | 9
Cn1ccc(NC(=O)CCl)n1 | 17 | 15 | 1.2 | -1 | 18% | -1.4 | 3 | -3.1 | -0.4 | -21
CN1CCN(c2ccc(Cl)cc2N)CC1 | 19 | 12 | -2.3 | 1 | 10% | 0.3 | 36 | -7.8 | 0.9 | 27
CN1CCN(c2ncc(C=O)s2)CC1 | 10 | 15 | -0.6 | 0 | -3% | -1.5 | 8 | 1.5 | -0.4 | -13
Cc1nn(Cc2ccccc2)c(C)c1C(=O)O | 10 | 3 | -1.1 | -5 | -3% | -0.4 | 29 | -2.5 | 0.4 | -6
CSc1nc(N2CCN(C)CC2)c2ccccc2n1 | 0 | 1 | -2.2 | -4 | -3% | 2.1 | 1 | 2.0 | 0.0 | 12
COc1ccc(Nc2ncc(C(=O)N3CCC4(CC3)OCCO4)c3ccccc23)cc1 | . | . | . | -9 | -2% | . | -16 | 3.7 | 0.6 | -7

At a glance, part of the list above:
SMILES | rRNA inh HTS | rRNA inh HTS OD600 | rRNA inh HTS RFP | Beta apoptosis | Vif TR-FRET | AF4-AF9 inh | Calb FLC | RanGTP-Impb inh | A1 inh | T cruzi inh
NC(=S)/N=C/c1c(O)[nH]c(=O)[nH]c1=O | 7 | 6 | -1.0 | -11 | 7% | -4.2 | -6 | 4.4 | -0.1 | -1
c1ccc(-c2nc(N3CCOCC3)s[n+]2-c2ccccc2)cc1 | . | . | . | -1 | 10% | . | -2 | ? | -1.2 | -13
Cc1cccc(N2C(=O)NC(=O)/C(=C/c3ccc(-c4ccc(C(=O)O)c(Cl)c4)o3)C2=O)c1 | . | . | . | 0 | 13% | . | ? | 1.4 | 0.6 | -7
NC(=O)c1ccsc1NC(=O)COC(=O)Cc1ccccc1 | -2 | -3 | -3.9 | 1 | -15% | -4.9 | . | . | 1.3 | .

From PubChem BioAssay
